# Compound activity as filed in PubChem BioAssay.
# KSHV LANA nucl: inhibitors of KSHV LANA-nucleosome binding, primary screen, biochemical, fluorescence polarization, FITC-LANA1-23, chicken nucleosomes | FITC-LANA1-23 / chicken nucleosome fluorescence polarization; active compounds read low | z-score (test concentration not listed) | 0.3% of 51,000 active;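 active = both repeat wells score below -2 in polarization z-score versus plate sample wells, excluding overly bright wells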;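 note: 100 nL library stock added to about 30 µL; numbers are from one replicate; some results filed as inactive read as strong as hits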
#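 Material: Purified chicken nucleosomes with FITC-labelled LANA N-terminal peptide (1-23) | Reagent: 50 nM FITC-LANA1-23 probe | Medium: TEN-BT buffer, pH 7.5 | Times: 10–45 min incubation at room temperature | Detection: Fluorescence polarization | Replication: Duplicates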
# BasE inh: BasE siderophore enzyme inhibitors, primary screen, biochemical, Acinetobacter baumannii ATCC 17978, fluorescence polarization; purified BasE, fluorescence polarization binding displacement; inhibition, % (no concentration beside the values); 0.1% of 84,000 active; AID 485350, 2010;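 active = both replicates above 25% with normal brightness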;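 note: 0% = negative plate control signal and 100% = positive plate control signal; stock transfer was 100 nL into about 30 µL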
# An asterisk follows results filed as active; . = not tested or not shown; & = joins results of further samples. This is a subset; rates above refer to the full screens.
item	canonical_smiles	KSHV LANA nucl	BasE inh
1	CCCCn1c(SCC(=O)c2ccc3c(c2)NC(=O)CO3)nc2cc(S(N)(=O)=O)ccc21	.	-4.2
2	O=C(NCCCN1CCCC1=O)Nc1cnc2ccccn2c1=O	-1.28	2.0
3	Cc1ccn(CN2CCN(Cn3ccc(C)n3)C2=S)n1	.	6.0
4	Brc1cc2c(cc1CSc1nnc(C3CC3)n1C1CC1)OCCO2	.	1.7
5	COc1ccc(OCCn2cc(C=C3C(=O)N(C)C(=O)N(C)C3=O)c3ccccc32)cc1	.	1.1
6	O=C(O)c1ccccc1Cn1ccnc1	1.95	-3.8
7	Nc1nnc(CC(=O)c2ccccc2)c(=O)[nH]1	.	2.8
8	Cc1oc(-c2ccc(Cl)cc2)cc1CO	0.191	1.8
9	Cn1cccc1C(=O)OCC(=O)Nc1cc(C(C)(C)C)nn1-c1ccccc1	.	0.3
10	CC(SC1=N/C(=C\c2ccco2)C(=O)N1c1ccc(OC(F)F)cc1)C(=O)N1CCc2ccccc21 (configuration not stated)	.	1.4
11	C/C(=N\NC(=O)C1CCN(S(=O)(=O)c2ccccc2)CC1)c1ccccc1	0.836	-1.6
12	COc1ccccc1OCC(O)CN1CCOCC1 (configuration not stated)	2.46	-2.1
13	Cc1nc2sccn2c1C(=O)N/N=C\c1ccc(CNS(=O)(=O)c2ccc(Cl)cc2)o1	-0.975	0.2
14	CCC(=O)Nc1cc(-c2nn(C)c(=O)c3ccccc23)ccc1N1CCCCC1	-0.097	-2.2
15	CC(=O)N1CCN(CC(=O)NCCc2ccc(Cl)cc2)CC1	.	2.4
16	Cn1c(C(C#N)/C(=N\S(=O)(=O)c2ccccc2)c2ccccc2)nc2ccccc21 (configuration not stated)	.	2.7
17	O=C(O)Cc1ccc(NC(=S)Nc2ccc3c(c2)OCO3)cc1	-0.446	0.8
18	COc1ccc(CN(C)C(=O)c2cccc(N(C)C)c2)cc1	.	-0.8
19	COC(=O)c1c(NC(=O)c2cccs2)sc2c1C(C(=O)OC)CC2 (configuration not stated)	-0.166	0.2
20	c1ccc(CNCc2cccn2-c2nnc(N3CCCCC3)s2)cc1	.	-2.3
21	COc1ccccc1NS(=O)(=O)c1cccc(Cl)c1	.	1.2
22	COc1ccc(NC(=O)c2ccc(COc3cccc(C)c3)o2)cc1	2.62	-5.6
23	O=C(COc1ccc2c3c(c(=O)oc2c1)CCC3)c1ccc(N2CCCC2)cc1	0.12	2.5
24	CNC(=O)[C@H]1O[C@@H](n2cnc3c(NCc4cccc(I)c4)ncnc32)C(O)[C@H]1O (some centres not stated)	-1.23	-3.0
25	Cc1ccc2ncc(C(=O)N3c4ccccc4CC3C)c(=O)n2c1 (configuration not stated)	0.176	1.2
26	Cc1nn(C(=O)CCC(=O)N2CCc3ccccc32)c2ccccc12	0.327	1.0
27	Cc1[nH]c2ccc(C(=O)OCC(=O)c3cc4ccccc4o3)cc2c1C	.	-1.7
28	CCSc1nnc(-c2cc(Br)ccc2N)c(=O)[nH]1	0.217	3.8
29	COC(=O)C1=C(C)NC(=O)C1(Nc1nc2ccccc2s1)C(F)(F)F (configuration not stated)	-0.274	-0.6
30	COc1ccc(-c2cc(C(=O)N(C)c3ccccc3)no2)cc1	-0.943	2.0

# Next part.
item	canonical_smiles	KSHV LANA nucl	BasE inh
31	CCOc1ccc(C(NC(=O)c2ccco2)NC(=O)c2ccco2)cc1OC	.	1.0
32	COc1ccsc1C(=O)O	0.691	.
33	Cc1nc2ccccc2c(C)c1CC(=O)N1CCN(c2ccc(O)cc2)CC1	.	1.8
34	CCn1c(CSc2ncccn2)nc2cc(C(=O)O)ccc21	.	5.3
35	Cc1sc2ncnc(N(C)C3CCCCC3)c2c1C	.	2.8
36	CC1CCN(CC(=O)N2CCN(c3ccccc3)CC2)CC1	-0.255	-1.9
37	COc1ccc(O)c(/C=N/c2nc3ccccc3s2)c1	-1.27	0.3
38	COc1ccc(C2c3cccn3CCN2C(=O)Nc2cccs2)cc1OC (configuration not stated)	1.35	0.1
39	CC(=C1C(=O)c2ccccc2C1=O)N1CCc2ccccc2C1	.	9.7
40	CCCNC(=O)N1CC(O)CC1C(N)=O (configuration not stated)	.	2.2
41	CN1CCC(=NNC(=O)c2ccc3c(c2)NC(=O)C(C)(C)O3)CC1	0.0935	-0.4
42	Cc1cccc(NC(=O)CCCN2C(=O)CCC2=O)c1C	-0.622	3.7
43	O=C(CN1C2=NCCN2c2ccccc21)c1ccco1	-0.0475	-1.0
44	Cc1ccn(CCC(=O)O)n1	-1.2	0.7
45	CC(Oc1cccc(Cl)c1)C(=O)N(C)Cc1nc(-c2ccccc2)no1 (configuration not stated)	0.121	6.0
46	O=C(CSc1nnc(-c2cccs2)o1)N1c2ccccc2OCC1c1ccccc1 (configuration not stated)	.	0.5
47	COc1ccc(C2CC(=O)N3C(=C2C#N)SCC3(O)c2ccccc2)cc1 (configuration not stated)	2.24	-5.6
48	Cc1nn(C(C)(C)C)c(OC(=O)c2cccs2)c1Sc1ccccc1	0.046	-1.0
49	Cc1cc(NC(=O)/C(C#N)=C/c2ccc(Cl)cc2)n(-c2ccccc2)n1	.	1.5
50	O=C(CSc1nnnn1-c1ccc2c(c1)OCCO2)c1ccc2c(c1)OCCO2	0.197	-1.4
51	CC(C)NC(=O)N(Cc1ccccc1)Cc1cccs1	.	3.0
52	CC1CCCN(S(=O)(=O)c2ccc(NC(=O)CSc3nc4ccccc4o3)cc2)C1 (configuration not stated)	1.01	1.2
53	Cc1cc(C)c2c(c1)C(=O)CCC2	.	1.0
54	O=C(NC(=O)c1ccccc1O)c1ccc(F)cc1	0.418	4.0
55	COc1ccc(C2C3=C(Nc4ncnn42)c2ccccc2CCC3)cc1 (configuration not stated)	.	1.4
56	Cn1cc(C(F)(F)F)ccc1=S	-0.333	0.5
57	COC(=O)c1oc2c(c1C)C(=O)CCC2	-0.0325	-0.3
58	Nc1nc(SCc2nc(-c3ccccc3)no2)n[nH]1	.	2.2
59	CC1CCCCN1C(=O)C1CCCN(S(=O)(=O)c2ccccc2)C1 (configuration not stated)	0.86	-0.8
60	CCC#CCN(c1ccccc1)c1ccccc1	-1.24	1.8

# (continued)
item	canonical_smiles	KSHV LANA nucl	BasE inh
61	CC(=O)NN=C1CCC(=NNC(C)=O)CC1	-0.629	0.3
62	Cn1nc(C(=O)N2CCN(S(=O)(=O)c3ccccc3)CC2)c2ccccc2c1=O	.	-1.0
63	CCN(CC)S(=O)(=O)c1cccc(-c2nnc(SCC#N)n2Cc2ccccc2)c1	.	2.3
64	CCNC(=S)N1CCC(C(=O)c2ccc(Cl)cc2)CC1	-0.445	-2.9
65	O=C(CCSc1ccccc1)Nc1ccc(S(=O)(=O)NCc2ccco2)cc1	.	2.2
66	Cc1ccc(NC(=O)N(CCC(=O)O)Cc2ccccc2)cc1	.	2.3
67	Brc1ccc2c(c1)C1CC(c3ccccc3)=NN1C(c1ccco1)O2 (configuration not stated)	-0.946	-15.1
68	CN(C)c1cc(-c2ccccc2)oc(=O)c1Cl	0.0775	-3.2
69	Cn1c(=O)cc(OCCCC(=O)O)c2ccccc21	0.24	2.0
70	CC#C[C@]1(O)CC[C@H]2[C@@H]3CCC4=CC(=O)CCC4=C3[C@@H](c3ccc(N(C)C)cc3)C[C@@]21C	-0.621&-0.833&-0.278	-2.0
71	COc1ccc(N2CCN(/C=C3\C(=O)N(c4ccc(C)cc4)C(=O)c4ccccc43)CC2)cc1	.	0.7
72	O=C(COc1ccc(F)cc1)N(c1ccccn1)C1CCCCC1	.	-0.3
73	COc1ccc(C2(c3ccc(OC)cc3)NC(=O)N(Cn3nnc4ccccc4c3=O)C2=O)cc1	.	0.2
74	Cc1nn(-c2ccc(Cl)cc2)c2sc(C(=O)NC3=NCCS3)cc12	.	-3.8
75	COc1cccc(CNCCCN2CCOCC2)c1OCc1ccc(C)cc1	-1.58	1.2
76	CCc1ccc(C(=O)NCc2cccs2)s1	0.154	-1.0
77	CC1CC(C)CN(c2nnc(NC(=O)c3csc4c3CCCC4)s2)C1 (configuration not stated)	0.675	1.5
78	O=c1c(O)cccc2cc(O)c(O)c(O)c12	-0.043	9.0
79	Cc1ccc(N2C(=O)C3CNC4(C(=O)Nc5ccc(Br)cc54)C3C2=O)cc1 (configuration not stated)	1.22	-0.5
80	COc1ccc(-n2c(-c3ccc(Cl)cc3)cnc2SCc2nccn2C)cc1	.	-1.2
81	O=C(NC1CCN(Cc2ccccc2)CC1)c1ccc(-c2cccs2)s1	-0.804	.
82	O=C1CC(CSc2nnc(-c3ccc(Cl)cc3)n2-c2ccccc2)=NN1	1.03	-2.5
83	CC(=O)N1CCN(C(=O)c2cc(C)nc3ccccc23)CC1	.	1.1
84	CC(C)(C)OC(=O)N1CC=C2C(C#N)=C(N)C(C#N)(C#N)C(c3ccc4c(c3)OCO4)C2C1 (configuration not stated)	0.842	-10.2
85	Cc1ccccc1N1CC(C(=O)Nc2ccc(S(N)(=O)=O)cc2)CC1=O (configuration not stated)	-1.5	-1.2
86	COc1ccc(N(C(=O)c2ccccc2OC(C)=O)C(C)C2CC2)cc1 (configuration not stated)	.	0.5
87	O=C(CCN1C(=O)C2C3C=CC(C3)C2C1=O)N1CCCCC1 (configuration not stated)	.	0.4
88	Cc1ccccc1NC(=O)Nc1ccc(-n2ncnn2)cc1	0.37	4.1
89	COc1ccc(CNC(=O)NC(C)(C)C)cc1	.	0.1
90	CCc1ccc(C(=O)/C=C/Nc2ccc(C)cc2O)cc1	.	-0.1

# Looked up one by one from above (6):
item	canonical_smiles	KSHV LANA nucl	BasE inh
74	Cc1nn(-c2ccc(Cl)cc2)c2sc(C(=O)NC3=NCCS3)cc12	.	-3.8
79	Cc1ccc(N2C(=O)C3CNC4(C(=O)Nc5ccc(Br)cc54)C3C2=O)cc1 (configuration not stated)	1.22	-0.5
83	CC(=O)N1CCN(C(=O)c2cc(C)nc3ccccc23)CC1	.	1.1
88	Cc1ccccc1NC(=O)Nc1ccc(-n2ncnn2)cc1	0.37	4.1
85	Cc1ccccc1N1CC(C(=O)Nc2ccc(S(N)(=O)=O)cc2)CC1=O (configuration not stated)	-1.5	-1.2
77	CC1CC(C)CN(c2nnc(NC(=O)c3csc4c3CCCC4)s2)C1 (configuration not stated)	0.675	1.5

# (more compounds)
item	canonical_smiles	KSHV LANA nucl	BasE inh
91	CCN(CC)CCOC(=O)C(c1ccccc1)C1CCCCC1 (configuration not stated)	-0.315&-1.12	-3.1&-0.1
92	FC(F)(F)c1cccc(-n2c(-c3ccco3)n[nH]c2=S)c1	0.304	0.2
93	CC1CCN(C(=O)COC(=O)CCN2C(=O)S/C(=C\c3cccs3)C2=O)CC1	.	0.1
94	C=CCNc1c2c(nc3cc(-c4cc(OC)cc(OC)c4)nn13)CCC2	-0.0655	-1.9
95	C=CCSc1nnc(-c2ccc(C)cc2)o1	.	-1.6
96	Cc1cccc(OCCCC(=O)N2CCCCCC2)c1C	0.893	2.7
97	Cn1cc2c(n1)-c1cc(Cl)ccc1SC2	0.456	-2.3
98	Cc1cc(Cl)ccc1OCCCC(N)=O	-0.075	-1.0
99	CSc1sc(C(=O)Nc2cccc(Cl)c2)c(-c2cccs2)c1C#N	.	-5.1
100	O=C(OCCOc1ccccc1)c1cc2c(s1)CCC2	.	1.4
101	Cc1ccccc1NS(=O)(=O)c1cc(-c2onc(C)c2C)ccc1C	.	1.2
102	CNC(=O)C1OC(C)(C(C)(C)C)OC1C(=O)NC (configuration not stated)	.	0.1
103	O=S(=O)(c1ccc2nc3c(nc2c1)-c1cccc2cccc-3c12)N1CCOCC1	.	-0.1
104	COc1cc(/C=N/n2cc(-c3ccccc3)[nH]c2=S)cc(OC)c1OC(C)=O	.	2.9
105	CCN(CC)c1ccc(N=Cc2ccc(O)cc2)cc1	.	2.8
106	CCCNC(=O)CSc1nc(-c2ccccc2)cc(C(F)(F)F)n1	-0.202	4.2
107	COC(=O)c1ccc(CSc2nnc(SCc3ccc(C(=O)OC)o3)s2)o1	.	0.7
108	O=C(CSc1nc2ccccc2s1)OCN1C(=O)c2ccccc2C1=O	.	3.0
109	CCN(CC(=O)NCc1cccs1)C(=O)c1oc2ccc(OC)cc2c1C	.	-1.0
110	CC(=O)Nc1cccc(NC(=O)Nc2ccccc2)c1	.	1.4
111	N#Cc1c(NCc2ccccc2)ccnc1Cl	0.48	-0.9
112	CCC(C)(C)C1CCC(=NNC(=O)c2ccoc2C)CC1 (configuration not stated)	.	0.3
113	CC(=O)OCCOCn1cc(I)c(=O)[nH]c1=O	-0.117	1.6
114	CC1(CC(=O)N/N=C/c2ccc(Br)o2)SCCS1	.	-0.2
115	O=C(CSc1ccc2nnc(-c3ccncc3)n2n1)N1CCCC1	-0.154	1.6
116	C#CCN1C(=O)S/C(=C/c2cc(OC)c(OCC(=O)O)cc2Br)C1=O	0.188	2.7
117	CCCCNc1ncnc2c1[nH]c1ccc(C)cc12	0.338	-1.3
118	O=c1[nH]c(CN2CCCC2)nc2scc(-c3ccccc3)c12	.	-1.5
119	c1ccc(-n2nnnc2Sc2nnc(C3COc4ccccc4O3)n2-c2ccccc2)cc1 (configuration not stated)	.	1.0
120	Cc1ccc(-c2cc3c(n2Cc2cccs2)CC(C)(C)CC3=O)cc1	0.0705	0.1
121	COC(=O)CSc1nnnn1-c1ccccc1	.	1.2
122	Cc1ccccc1NC(=O)N(C)C1CCN(C)CC1	0.467	-1.5

# Three successive entries out of the list so far:
item	canonical_smiles	KSHV LANA nucl	BasE inh
91	CCN(CC)CCOC(=O)C(c1ccccc1)C1CCCCC1 (configuration not stated)	-0.315&-1.12	-3.1&-0.1
92	FC(F)(F)c1cccc(-n2c(-c3ccco3)n[nH]c2=S)c1	0.304	0.2
93	CC1CCN(C(=O)COC(=O)CCN2C(=O)S/C(=C\c3cccs3)C2=O)CC1	.	0.1
